Source: PubChem BioAssay
Polio RdRp inh = inhibitors of poliovirus RNA polymerase binding and polymerization; AID 588519; % elongation, % (compound at 16.7 µg/mL); actives 0.66% (n = 150,000); poliovirus polymerase elongation, fluorescence polarization; active compounds read low; in the data active means % elongation below about 90%; further: some results filed as inactive read as strong as hits
Target sequence (P03300 1749-2209 limits assumed): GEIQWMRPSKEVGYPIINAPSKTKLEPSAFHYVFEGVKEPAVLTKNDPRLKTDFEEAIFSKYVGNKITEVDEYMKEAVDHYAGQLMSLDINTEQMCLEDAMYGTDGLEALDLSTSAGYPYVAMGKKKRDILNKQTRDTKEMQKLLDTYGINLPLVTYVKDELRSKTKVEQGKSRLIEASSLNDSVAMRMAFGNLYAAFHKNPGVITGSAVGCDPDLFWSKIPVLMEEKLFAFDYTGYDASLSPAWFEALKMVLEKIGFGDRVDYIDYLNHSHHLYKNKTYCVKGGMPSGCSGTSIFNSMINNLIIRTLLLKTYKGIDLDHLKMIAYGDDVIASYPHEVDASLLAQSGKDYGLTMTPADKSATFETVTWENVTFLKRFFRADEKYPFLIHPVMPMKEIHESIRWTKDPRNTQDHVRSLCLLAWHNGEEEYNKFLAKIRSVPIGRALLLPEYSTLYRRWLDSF
Mtb MbtI inh = inhibitors of Mycobacterium tuberculosis siderophore enzyme MbtI | P9WFX0 | purified MbtI enzyme, fluorescence intensity read-out | inhibition, %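 (about 17 µg/mL by stock and volumes)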 | actives 0.89% (n = 100,000);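 active means above 50% in both replicates, above 80% if mildly self-fluorescent; inactive means the rest, strongly fluorescent compounds included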;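 further: 0% = mean of negative and 100% = mean of positive controls; one replicate is shown; some compounds called inactive have numbers as strong as hits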
Target sequence (P9WFX0 whole entry, looked up): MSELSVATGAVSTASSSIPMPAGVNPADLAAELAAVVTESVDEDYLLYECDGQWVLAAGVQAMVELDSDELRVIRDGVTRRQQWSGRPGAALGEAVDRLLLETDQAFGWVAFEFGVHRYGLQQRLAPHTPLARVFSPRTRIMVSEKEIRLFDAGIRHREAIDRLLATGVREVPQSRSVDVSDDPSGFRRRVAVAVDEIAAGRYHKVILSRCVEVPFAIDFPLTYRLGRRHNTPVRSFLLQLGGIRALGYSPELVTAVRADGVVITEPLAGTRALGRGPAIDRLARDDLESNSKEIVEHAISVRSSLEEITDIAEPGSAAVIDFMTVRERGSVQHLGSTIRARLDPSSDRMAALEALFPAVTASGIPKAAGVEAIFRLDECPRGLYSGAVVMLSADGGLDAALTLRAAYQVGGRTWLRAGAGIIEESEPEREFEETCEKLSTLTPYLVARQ
Mtb MenB inh = Mtb MenB enzyme inhibition; actives 0.43% (n = 100,000); MenB enzyme assay, absorbance read-out; some hits fall short of the stated cut; inhibition, %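 (about 12 µg/mL by stock and volumes)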; AID 540299; P9WNP5;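 active means mean of two replicates above 30%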;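 further: 0% = no compound and 100% = wells with inactive enzyme; the first replicate is given; strong numbers were not always called active; inactives centre near -10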
Polio RdRp inh intensity = recorded beside Polio RdRp inh, whose call it bears; % elongation; measured here: total intensity read-out; formula for this scale not given here;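 total fluorescence in place of polarization; lower means less elongation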
An asterisk follows results filed as active; nt = not tested or not shown.

| canonical_smiles | Polio RdRp inh | Polio RdRp inh intensity | Mtb MbtI inh | Mtb MenB inh |
| --- | --- | --- | --- | --- |
| O=S(=O)(NCC1CCCO1)c1ccc2ccccc2c1 (configuration not stated) | 98 | 102 | 20 | 2 |
| NNC(=O)Cc1cc(Br)sc1Br | 105 | 108 | -6 | 9 |
| N#CC(C#N)=C1C(C#N)=C(N)OC1c1ccccc1 (configuration not stated) | 102 | 98 | nt | -22 |
| CCC(C)n1c(NC(=O)c2ccccc2)c(C#N)c2nc3ccccc3nc21 (configuration not stated) | 44 | 238 | -7 | -67 |
| CC(NC(=O)CSc1ncccn1)c1ccccc1 (configuration not stated) | 103 | 102 | -2 | -49 |
| O=C(/C=C(\O)c1ccccc1)C(=O)Nc1ccccn1 | 104 | 104 | 13 | -20 |
| Cc1ccc2c(c1)c(C1=NC(=S)NC1=O)c(O)n2C | 103 | 101 | 6 | -2 |
| COc1cc(C2NC(=O)NC3=C2C(=O)N(Cc2ccc(F)cc2)C3)cc(OC)c1OC (configuration not stated) | 104 | 108 | 1 | -10 |
| CCC1CCCCN1C(=S)NC1CCCCC1 (configuration not stated) | 103 | 92 | -12 | -35 |
| COc1cc(/C=N/NC(=O)CC2(C)SCCS2)ccc1O | 101 | 104 | -12 | -16 |
| c1ccc(-n2c3c(c4ccccc42)CCC3)cc1 | 98 | 101 | nt | 5 |
| CC(=O)N[C@H]1[C@H](Oc2nc3cc(C)ccc3o2)O[C@H](CO)[C@@H](O)[C@@H]1O | 104 | 107 | -2 | -16 |
| Cc1ccccc1NC(=O)c1cnn2ccccc12 | 102 | 104 | -2 | -14 |
| CC(=O)Nc1nnc(SCc2ccccc2)s1 | 102 | 105 | 18 | 3 |
| CCc1ccc(-n2[nH]nnc2=S)cc1 | 96 | 95 | 36 | -2 |

Additional records follow:
| canonical_smiles | Polio RdRp inh | Polio RdRp inh intensity | Mtb MbtI inh | Mtb MenB inh |
| --- | --- | --- | --- | --- |
| CC(C)C(=O)N(Cc1ccccn1)c1nc2ccccc2s1 | 100 | 101 | 1 | -6 |
| CCN(CC)c1ccc(N)c(C)c1 | 101 | 104 | 98* | -3 |
| Cn1c(=NC(=O)CSCC(=O)N2CCN(c3ccccc3)CC2)sc2ccccc21 | 101 | 102 | 3 | -24 |
| Cc1noc(C)c1CSCC(=O)Nc1c2ccccc2n2c(C)nc3ccccc3c12 | 100 | 94 | 5 | 10 |
| CCOC(=O)c1ccc(NC(=O)n2ncc3cc(Cl)ccc32)cc1 | 103 | 103 | -8 | 4 |
| CCS(=O)(=O)CCSc1nc(C)cc(C)n1 | 101 | 97 | -7 | -25 |
| O=C(c1ccc2nc[nH]c2c1)N1CCN(C/C=C/c2ccccc2)CC1 | 100 | 93 | -2 | -5 |
| CCOC(=O)C1=C(CC)Nc2ccccc2N=C1NC(=O)Nc1ccccc1OC | 101 | 106 | -2 | -38 |
| Cc1cccc(C(=O)NCC(=O)N2CCN(S(=O)(=O)/C=C/c3ccccc3)CC2)c1 | 100 | 107 | -4 | -9 |
| N#Cc1cccc(NC(=O)C23CC4CC(CC(Cl)(C4)C2)C3)c1 | 98 | 97 | -5 | nt |
| N#Cc1nc(Cc2ccccc2)oc1N1CCC(Cc2ccccc2)CC1 | 98 | 103 | -13 | -23 |
| O=C(CSc1nnnn1-c1ccccc1)c1ccccc1 | 103 | 102 | 0 | 8 |
| CNC(=O)c1ccc(NC(=O)Nc2ccccc2)cc1 | 99 | 103 | -15 | -22 |
| N#CC1=C(SCC(=O)Nc2ccccc2)NC(=O)CC1c1ccccc1 (configuration not stated) | 102 | 102 | 4 | -3 |
| N#Cc1c(NC(=O)c2cc(-c3cccs3)nc3ccccc23)oc(-c2ccco2)c1-c1ccco1 | 98 | 104 | 1 | -26 |

Additional compounds follow:
| canonical_smiles | Polio RdRp inh | Polio RdRp inh intensity | Mtb MbtI inh | Mtb MenB inh |
| --- | --- | --- | --- | --- |
| N#CC(=C1SCCCS1)S(=O)(=O)c1cccs1 | 106 | 109 | -4 | 4 |
| COc1ccccc1-n1cnnc1SCC(N)=O | 107 | 107 | 6 | -108 |
| COC(=O)C12CCCC(C(N)=O)(CCC1)C2 | 99 | 101 | -7 | nt |
| CC1C(=O)CCC1(C(=O)Nc1ccccc1)c1ccccc1 (configuration not stated) | 99 | 101 | 44 | -3 |
| Cc1ccccc1OC(=O)c1ccc2ncsc2c1 | 105 | 105 | -28 | -16 |
| COC(=O)c1cc(NC(=O)CNC2CCCCCC2)cc(C(=O)OC)c1 | 97 | 102 | 16 | -19 |
| O=c1c2ccccc2nc(SCCN2CCCCC2)n1CC1CCCO1 (configuration not stated) | 102 | 102 | 2 | 31 |
| CCCCNC(=O)c1cc2c(-c3cccc(OC)c3)nn(C)c2s1 | 101 | 99 | 117 | -37 |
| Cc1cccc(C)c1NC(=O)C1(N(C)C(=O)/C=C/c2ccc3c(c2)OCO3)CCCCC1 | 105 | 103 | -2 | -5 |
| Cc1cc(Nc2ccccc2)n(C(=O)c2ccccc2)n1 | 104 | 105 | -11 | nt |
| CCOCCn1ccc2c(OCC(=O)NC(C)(C)C)cccc2c1=O | 105 | 109 | -21 | -3 |
| CCOc1ccc(-c2cnc3ccccc3n2)cc1 | 99 | 103 | -20 | -30 |
| CCN(C(=O)CSc1cccc[n+]1[O-])C1CCCCC1 | 97 | 102 | 5 | 3 |
| CC[N+]1(CC(O)COc2ccc(Br)cc2Br)CCOCC1 (configuration not stated) | 104 | 108 | -4 | nt |
| Nc1nc(N)nc(COC(=O)CSCc2ccc(Cl)c(Cl)c2)n1 | 104 | 98 | 0 | 3 |

Just Polio RdRp inh intensity and Polio RdRp inh, for 2 of the compounds above:
SMILES	Polio RdRp inh intensity	Polio RdRp inh
COC(=O)c1cc(NC(=O)CNC2CCCCCC2)cc(C(=O)OC)c1	102	97
CCCCNC(=O)c1cc2c(-c3cccc(OC)c3)nn(C)c2s1	99	101

New compounds follow:
| canonical_smiles | Polio RdRp inh | Polio RdRp inh intensity | Mtb MbtI inh | Mtb MenB inh |
| --- | --- | --- | --- | --- |
| COc1ccc(N2CC(NC(=O)N3CC(C)OC(C)C3)CC2=O)cc1 (configuration not stated) | 101 | 99 | -11 | -14 |
| CN(C)c1ccc(/C=N/OCC(=O)Nc2ccccc2C#N)cc1 | 102 | 102 | -56 | -19 |
| N#Cc1ccccc1NC(=O)C1=COCCO1 | 100 | 101 | 2 | 12 |
| c1ccc(CN2CCC(c3cccs3)=N2)cc1 | 108 | 110 | -412 | -25 |
| O=C(NCc1ccco1)c1cc2cc(Br)ccc2oc1=O | 102 | 101 | -7 | -23 |
| C=CCOc1ccc(CNC(C)(C)C)cc1 | 101 | 100 | 8 | -14 |
| O=C(Nc1ccc(F)cc1)c1cc2c(s1)-c1ccccc1SC2 | 104 | 102 | 92 | -30 |
| COCCCNC1CC2CCC1C2 (configuration not stated) | 101 | 104 | -1 | 7 |
| COc1ccc(N2CCN(CC(NS(=O)(=O)c3ccccc3)c3ccccc3)CC2)cc1 (configuration not stated) | 98 | 98 | 5 | -20 |
| CCOc1ccc(N(CC)C(=S)Nc2ccc3nc(N4CCN(CC)CC4)cc(C)c3c2)cc1 | 100 | 101 | -14 | -23 |
| COc1ccc(/C=C2/C(=O)C(C(C)C)=CCC2C)cc1 (configuration not stated) | 104 | 106 | -3 | -13 |
| CC1(C)CC(NCc2cc(Cl)c3c(c2)OCCCO3)CC(C)(C)N1 | 99 | 102 | -1 | -11 |
| COc1ccc(S(=O)(=O)c2c(N)n(CC3CCCO3)c3nc4ccccc4nc23)cc1 (configuration not stated) | nt | nt | -1 | -13 |
| OCCN1CCN(c2ncnc3sc(-c4ccccc4)cc23)CC1 | 101 | 96 | -1 | -16 |
| NC(=O)COc1ccc(Br)cc1 | 97 | 101 | -5 | -28 |

More results follow:
Results follow in this order: Polio RdRp inh | Polio RdRp inh intensity | Mtb MbtI inh | Mtb MenB inh
- COc1ccc(S(=O)(=O)Nc2ccc3c(c2)n(C)c(=O)n3C)cc1C(=O)N1CCCCCC1
 : 101 | 101 | 1 | 6
- O=c1c2ccccc2c(C=Nc2cccc(C(F)(F)F)c2)c(O)n1-c1ccccc1
 : 100 | 100 | -15 | -16
- NC1=NC(=O)CC(C(=O)NCc2ccccc2)S1 (configuration not stated)
 : 102 | 108 | -10 | nt
- CC1=Cc2nc3ccccc3n2C2(C(F)(F)F)OC(c3cccs3)=NN12 (configuration not stated)
 : 105 | 101 | 72 | -32
- CC(OC(=O)Cn1ccc(=O)[nH]c1=O)C(=O)c1ccc(C(C)(C)C)cc1 (configuration not stated)
 : 113 | 124 | -1 | -24
- C=CCn1c(Sc2ncnc3sccc23)nc2ccccc2c1=O
 : 102 | 108 | -2 | -103
- O=C(CSCc1ccccc1)N1CCN(S(=O)(=O)c2cccs2)CC1
 : 99 | 101 | 20 | -14
- O=c1[nH]c2ccc(Cl)cc2c(-c2ccccc2)c1N1CCN(c2ccccn2)CC1
 : 100 | 102 | -20 | -17
- c1ccc2[nH]c(C3CC3)nc2c1
 : 104 | 103 | 1 | -1
- NC(=O)c1c(-c2ccc(Cl)cc2)csc1NC(=O)CCCc1ccccc1
 : 96 | 99 | nt | -53
- COc1cc(CN2CCC(C(=O)N3CCN(c4ccccc4F)CC3)CC2)cc(OC)c1O
 : 98 | 103 | nt | 9
- c1ccc(CC2CCN(Cn3cnc4ccccc43)CC2)cc1
 : 104 | 110 | -11 | -25
- COc1ccc(/C=N/N2C(=O)c3ccccc3C2=O)cc1OC
 : 103 | 102 | -1 | -16
- O=S(=O)(NCCSc1nnc(-c2ccco2)n1-c1ccccc1)c1ccccc1
 : 99 | 99 | 13 | -4
- CN1CCCN(C(=O)c2cc(S(=O)(=O)N(C)c3ccc(F)cc3)ccc2Cl)CC1
 : 97 | 92 | -4 | -18
- Cc1ccc(C(=O)O/N=C(/c2nonc2N)N(C)C)cc1
 : 100 | 102 | -5 | -7
- CC1CCN(C(=O)c2cc3c(=O)n4ccccc4nc3n2C)CC1
 : 101 | 107 | 109 | -29
- O=C(O)Cc1c[nH][nH]c1=O
 : 101 | 98 | -4 | 15
- CC1=C(C#N)C(c2ccc(CN3C(=O)c4ccccc4C3=O)o2)C2=C(CCCC2=O)N1 (configuration not stated)
 : 100 | 100 | -11 | 2
- CCC1c2ccc(C)n2CCN1C(=O)NC12CC3CC(CC(C3)C1)C2 (configuration not stated)
 : 102 | 97 | 27 | -3
- CC1(C)CC(=O)C=C(N)C1
 : 98 | 92 | 16 | -72
- O=C(COC(=O)c1cccc(NC(=O)C(F)(F)F)c1)c1ccccc1
 : 109 | 113 | nt | -20
- CC1=CC(C)(C)Nc2ccccc21
 : 104 | 106 | 102 | -8
- O=C(NCCc1ccccc1)Nc1c[nH]c(=O)[nH]c1=O
 : 100 | 102 | 3 | 3
- CC(C)NC(=O)CSc1nncn1-c1ccccc1
 : 102 | 109 | -11 | -11
- O=c1[nH]c(-c2ccccc2)nc2c1oc1ccccc12
 : 100 | 103 | -5 | -3
- O=C(Nc1cccnc1)c1c(O)c2ccccc2n(Cc2ccccc2)c1=O
 : 104 | 104 | 18 | -46
- Cc1ccc(Cl)cc1N1CCN(C(=O)c2ccc3noc(-c4ccccc4)c3c2)CC1
 : 103 | 105 | -5 | -32
- CCCOc1ccccc1NC(=O)/C=C/C(N)=O
 : 100 | 104 | 100* | nt
- CN(C(=O)COC(=O)c1cc(F)c(F)cc1Cl)c1ccccc1
 : 104 | 108 | -5 | nt

Quoted at random: two records from the list, in no set order.
Results follow in this order: Polio RdRp inh | Polio RdRp inh intensity | Mtb MbtI inh | Mtb MenB inh
- O=c1c2ccccc2c(C=Nc2cccc(C(F)(F)F)c2)c(O)n1-c1ccccc1
 : 100 | 100 | -15 | -16
- c1ccc2[nH]c(C3CC3)nc2c1
 : 104 | 103 | 1 | -1

New compounds follow:
Results follow in this order: Polio RdRp inh | Polio RdRp inh intensity | Mtb MbtI inh | Mtb MenB inh
- CCOC(=O)Cn1c(=NC(=O)C2COc3ccccc3O2)sc2cc(S(N)(=O)=O)ccc21 (configuration not stated)
 : 104 | 103 | 5 | -7
- Cc1sc2ccccc2[n+]1CCCO
 : 103 | 104 | 3 | -18
- CCN(CC)CC(O)COC1CCC(C(C)(C)C)CC1 (configuration not stated)
 : 99 | 106 | -6 | -7
- CCOC(=O)C1=C(O)/C(=C/c2ccco2)SC1=Nc1ccc(C)cc1
 : 101 | 104 | 4 | -6
- CC(C)CN1C(=O)c2ccc(Br)cc2C1=O
 : 105 | 102 | -8 | -63
- CC1CCCC1OP1(=O)CC=CC1 (configuration not stated)
 : 100 | 101 | -2 | -21
- COc1ccc(OCC(O)CNS(=O)(=O)c2cccc(Cl)c2)cc1 (configuration not stated)
 : 103 | 94 | 5 | -17
- O=c1c2c3c(sc2ncn1/N=C/c1cccnc1)CCCC3
 : 100 | 105 | 9 | -6
- O=C(CN1CCN(CCCc2c[nH]c3ccc(F)cc23)CC1)c1ccc(F)cc1
 : 102 | 94 | -4 | -23
- NC(=O)C1CCN(CC2CC3C=CC2C3)CC1 (configuration not stated)
 : 99 | 104 | -16 | -1
- Cc1cc(C2N=C(N)Nc3nc4ccccc4n32)c(C)n1-c1cc(C(F)(F)F)ccc1N1CCOCC1 (configuration not stated)
 : 103 | 105 | -23 | -12
- COc1ccccc1NC(=O)C(C#N)Cc1ccc(C)cc1 (configuration not stated)
 : 106 | 110 | nt | -17
- COc1ccccc1CC(=O)Nc1ccc(-c2nnc(-c3ccccc3)o2)cc1
 : 101 | 102 | -46 | -2
- CCCc1cc2ccccc2o1
 : 100 | 94 | 1 | 32*
- CC1CC1C(=O)OCC(=O)NCc1ccc(Cl)cc1Cl (configuration not stated)
 : 101 | 98 | 0 | nt
- CN1/C(=C\C(=O)CC(N)=O)C(C)(C)c2ccccc21
 : 128 | 151 | 2 | -3
